# Source: PubChem BioAssay
# TAR Tat displ: HIV-1 TAR-Tat binding disruption; 100,000 compounds, 0.6% hits; AID 1259389; z-score (test concentration not listed); HIV-1 TAR RNA, Tat peptide displacement FRET; stronger effect = higher value;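 note: score is relative to mean and SD of negative controls; some compounds called inactive have numbers as strong as hits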
# CDC25B CDK2 inh: human CDC25B-CDK2/CyclinA binding inhibition. HTRF CDC25B-CDK2/CyclinA binding, anti-His/anti-Flag; stronger effect = higher value. P30305+P24941. z-score (concentration not given with the values). 94,000 compounds, 0.72% hits;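 note: score is relative to mean and SD of negative controls; strong numbers were not always called active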
# The depositor's hits bear a star; / = no result given.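 Rule for the calls: active = z-score from 3 up in half or more of its runs; inactive = the rest.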
# Start of the data: the first 21 records, to show the layout:
no.	smiles	TAR Tat displ	CDC25B CDK2 inh
1	CCC(C)NC(=O)c1oc2ccc(S(=O)(=O)N3CCCC3)cc2c1C (stereo not drawn)	/	-0.28
2	CC(C)CCNC(=O)C1(C)Cn2nc(C(=O)N3CCOCC3)cc2C(=O)N1C (stereo not drawn)	-0.09	/
3	CC(C)(O)C#Cc1ccc(C(=O)N2CCN(C(=O)c3ccc(C#CC(C)(C)O)cc3)CC2)cc1	/	-2.2
4	Cc1ccc2c(c1)c1c(n2CC(O)CNCc2ccco2)C(=O)CCC1 (stereo not drawn)	/	-1.8
5	CCOc1c(C(=O)OC)sc2ccc(NC(=O)NCCC(C)C)cc12	0.75	/
6	CCn1nc(-n2cnnc2)c(NC(=O)c2ccc3c(c2)OCO3)c1C	0.48	-2
7	COC(=O)c1ncn2c1C(=O)N(CCc1cccs1)C(C)(C(=O)NC1CCCC1)C2 (stereo not drawn)	-0.07	/
8	O=C(c1ccc2snnc2c1)N1CCCC1	/	-3.4
9	Nc1nccc(-c2cccc(Cl)c2F)n1	/	-0.64
10	CCCOc1ccc(-c2cccc(NS(=O)(=O)c3ccccc3Cl)c2)nn1	-0.14	/
11	CC(=O)N1c2ccc(S(=O)(=O)N3CCCC3)cc2CC1C(=O)Nc1ccc2c(c1)OCCO2 (stereo not drawn)	-0.22	/
12	O=C(NCCN1CCCC1)c1cc2ccc3cccnc3c2[nH]1	0.74	/
13	O=C1CCCc2cc(S(=O)(=O)NCCC3=CCCCC3)ccc2N1	1.3	/
14	O=C(CCC(=O)N1CC2CCCN2c2ccccc21)NCCCN1CCCC1 (stereo not drawn)	-2.9	/
15	COC(=O)Cc1cc(=O)n(-c2nc3ccccc3[nH]2)[nH]1	3.2	-1.7
16	O=C(Nc1cc(-c2cccc(Cl)c2)no1)c1cc2c(s1)-c1ccccc1S(=O)(=O)C2	1.2	1.3
17	CCCCOC(=O)NC(NN1CCN(C)CC1)(C(F)(F)F)C(F)(F)F	/	-0.38
18	CCc1nnc2c(N3CCN(c4ccccc4F)CC3)nc3ccccc3n12	-0.88	/
19	Cc1nc2c(sc(=S)n2-c2ccccc2)c(=O)n1CC(=O)NCCC1=CCCCC1	0.2	/
20	Cc1ccc(CSc2nc3c(c(=O)[nH]2)C(c2cc(F)cc(F)c2)CC(=O)N3)cc1 (stereo not drawn)	0.4	-0.96
21	Cc1ccc2onc(CNC(=O)NCc3ccc4c(c3)OCO4)c2c1	0.37	/

# This part in full, repeating the preview:
no.	smiles	TAR Tat displ	CDC25B CDK2 inh
1	CCC(C)NC(=O)c1oc2ccc(S(=O)(=O)N3CCCC3)cc2c1C (stereo not drawn)	/	-0.28
2	CC(C)CCNC(=O)C1(C)Cn2nc(C(=O)N3CCOCC3)cc2C(=O)N1C (stereo not drawn)	-0.09	/
3	CC(C)(O)C#Cc1ccc(C(=O)N2CCN(C(=O)c3ccc(C#CC(C)(C)O)cc3)CC2)cc1	/	-2.2
4	Cc1ccc2c(c1)c1c(n2CC(O)CNCc2ccco2)C(=O)CCC1 (stereo not drawn)	/	-1.8
5	CCOc1c(C(=O)OC)sc2ccc(NC(=O)NCCC(C)C)cc12	0.75	/
6	CCn1nc(-n2cnnc2)c(NC(=O)c2ccc3c(c2)OCO3)c1C	0.48	-2
7	COC(=O)c1ncn2c1C(=O)N(CCc1cccs1)C(C)(C(=O)NC1CCCC1)C2 (stereo not drawn)	-0.07	/
8	O=C(c1ccc2snnc2c1)N1CCCC1	/	-3.4
9	Nc1nccc(-c2cccc(Cl)c2F)n1	/	-0.64
10	CCCOc1ccc(-c2cccc(NS(=O)(=O)c3ccccc3Cl)c2)nn1	-0.14	/
11	CC(=O)N1c2ccc(S(=O)(=O)N3CCCC3)cc2CC1C(=O)Nc1ccc2c(c1)OCCO2 (stereo not drawn)	-0.22	/
12	O=C(NCCN1CCCC1)c1cc2ccc3cccnc3c2[nH]1	0.74	/
13	O=C1CCCc2cc(S(=O)(=O)NCCC3=CCCCC3)ccc2N1	1.3	/
14	O=C(CCC(=O)N1CC2CCCN2c2ccccc21)NCCCN1CCCC1 (stereo not drawn)	-2.9	/
15	COC(=O)Cc1cc(=O)n(-c2nc3ccccc3[nH]2)[nH]1	3.2	-1.7
16	O=C(Nc1cc(-c2cccc(Cl)c2)no1)c1cc2c(s1)-c1ccccc1S(=O)(=O)C2	1.2	1.3
17	CCCCOC(=O)NC(NN1CCN(C)CC1)(C(F)(F)F)C(F)(F)F	/	-0.38
18	CCc1nnc2c(N3CCN(c4ccccc4F)CC3)nc3ccccc3n12	-0.88	/
19	Cc1nc2c(sc(=S)n2-c2ccccc2)c(=O)n1CC(=O)NCCC1=CCCCC1	0.2	/
20	Cc1ccc(CSc2nc3c(c(=O)[nH]2)C(c2cc(F)cc(F)c2)CC(=O)N3)cc1 (stereo not drawn)	0.4	-0.96
21	Cc1ccc2onc(CNC(=O)NCc3ccc4c(c3)OCO4)c2c1	0.37	/
22	CCc1ccc(-c2c(C#N)c(N)nc3c2CCCC3)s1	2.3	-2.9
23	CCCc1cc(=O)n2[nH]c(Cc3ccccc3)nc2n1	-0.08	0.19
24	O=C(NCc1ccc2c(c1)OCO2)c1ccc2c(=O)n(Cc3ccccc3)c(=S)[nH]c2c1	/	-3.9
25	O=C(Cn1c(=O)oc2cc(Cl)ccc21)N1CCc2ccccc21	0.57	/

# (cont.)
no.	smiles	TAR Tat displ	CDC25B CDK2 inh
26	COc1ccc(-c2noc(C(C)(C)Oc3ccc(Cl)cc3)n2)cc1OC	0.44	-1
27	Cc1nnc2sc(SCc3ccc(F)cc3)nn2c1=O	1.4	/
28	CCCN1CCN(c2ncnc3sc(C(=O)NC(C)C)c(C)c23)CC1	2	/
29	CCOC(=O)C1=C(C)N=C2SCC(=O)N2C1c1ccc(OC)c2ccccc12 (stereo not drawn)	-0.71	-0.63
30	O=c1c(NCCCc2ccccc2)c(-c2ccc3c(c2)CCCC3)c1=O	1.3	/
31	COc1cc(OC)c(NCC(O)Cn2nnnc2-c2ccccc2)cc1Cl (stereo not drawn)	0.83	-2.9
32	Cc1ccccc1-c1nc2c3c(C)c(C)n(Cc4ccco4)c3ncn2n1	1.2	-2.5
33	CCc1nnc(NC(=O)CSCc2cc(=O)n3c4c(sc3n2)CCCC4)s1	-0.8	/
34	O=C(Nc1ccc(Cl)cc1)c1cc(CN2CCCC2)on1	-0.03	/
35	CC1=C(c2cccc(Br)c2)S(=O)(=O)N=C1Nc1ccc(C)c(C)c1	0.12	-3.6
36	CCCN/C(C)=C(/C(=O)OCC)C(=S)Nc1ccc(OCC)cc1	/	-2.3
37	O=C(O)c1ccccc1SC(C[N+](=O)[O-])c1ccc2ccccc2c1 (stereo not drawn)	/	-0.4
38	CCn1cc(S(=O)(=O)c2ccc(OC)cc2)c(=O)c2cc(F)c(N3CCCC3)cc21	-0.33	/
39	COc1ccc2cc3c(N)nn(C(=O)CCS(=O)(=O)c4ccccc4)c3nc2c1	/	-0.53
40	Cc1cc(Nc2ccccc2)n2nc(-c3ccccc3)nc2n1	0.81	-0.54
41	CC(C)n1c(NC2CCCCC2)nc2c1c(=O)n(C)c(=O)n2C	/	0.24
42	CC1=C(C#N)C(c2ccc(F)cc2)C2=C(CC(c3ccccc3)CC2=O)N1 (stereo not drawn)	-0.3	0.88
43	CC(C)Nc1nc(N2CCN(C)CC2)nc2c1cnn2C	1.6	/
44	O=C(CSc1nc(-c2ccccc2F)nc2cc(=O)[nH]n12)Nc1ccccc1Cl	1.9	/
45	O=C(Nc1ccccc1)c1ccc2ccccc2c1O	/	-0.46
46	CCN1C(=O)C2(/C(=C(/O)c3ccccc3)C(=O)C(=O)N2CCCOC)c2ccccc21 (stereo not drawn)	3.7	1.5
47	Cc1sc2ccc3ccsc3c2[n+]1C	/	-2.5
48	CC(C)C1N=C2c3ccccc3N=C(SCc3cc(=O)n4ccccc4n3)N2C1=O (stereo not drawn)	/	-0.5
49	CCCCN(CCCC)S(=O)(=O)c1cc(Br)cc2c1N(C(C)=O)CC2	/	-0.64
50	Cc1nc2sccn2c(=O)c1NC(=O)c1ccco1	1.4	/

# Sorted by heavy-atom count (highest first): some entries from above
no.	smiles	TAR Tat displ	CDC25B CDK2 inh
16	O=C(Nc1cc(-c2cccc(Cl)c2)no1)c1cc2c(s1)-c1ccccc1S(=O)(=O)C2	1.2	1.3
49	CCCCN(CCCC)S(=O)(=O)c1cc(Br)cc2c1N(C(C)=O)CC2	/	-0.64
23	CCCc1cc(=O)n2[nH]c(Cc3ccccc3)nc2n1	-0.08	0.19

# Additional compounds
no.	smiles	TAR Tat displ	CDC25B CDK2 inh
51	Cn1nnnc1SCCCNCc1cc(Cl)ccc1OCc1ccccc1F	1.3	-1.3
52	CCOc1ccc(NC2CC(=O)N(c3ccc(OC)cc3OC)C2=O)cc1 (stereo not drawn)	0.23	3.4
53	O=S(=O)(NCc1cn2ccsc2n1)c1ccc(Oc2ccccc2)cc1	/	-0.66
54	COc1ccc(OC)c(Cn2c(-c3cc(OC)ccc3OC)nc3ccccc32)c1	-0.75	-2.1
55	O=S1(=O)C[C@H](NC2CC2)[C@@H](S(=O)(=O)c2ccc(F)cc2)C1	-0.32	-0.53
56	CCN(CC)C(=O)Cn1c(=O)oc2cc(S(=O)(=O)N3CC(C)CC(C)C3)ccc21 (stereo not drawn)	-0.36	-1.2
57	CC(=O)Oc1cccc(-c2nc3ccccc3c(=O)o2)c1	-0.48	-1.4
58	OCCN1CCN(C2CCN(Cc3ccccc3C(F)(F)F)CC2)CC1	/	0.58
59	OC(CNCc1ccc(-c2ccccc2)o1)c1ccccc1 (stereo not drawn)	0.6	/
60	COc1ccc(-c2nc3c(c(=O)[nH]2)Cc2cccc(OC)c2O3)cc1OC	2.6	-0.96
61	CCOC(=O)COc1cc2c(C(=O)OCC)c(C)n(CC(C)C)c2c2ccccc12	/	-0.76
62	CC1CCCCN1C(=O)c1nn2c(c1Cl)NC(c1cccs1)CC2C(F)(F)F (stereo not drawn)	-0.26	-2
63	O=C(COc1ccc(Cl)cc1)NC1CCSC1=O (stereo not drawn)	-1.6	-0.24
64	OCC1O[C@H]([S-])[C@@H](O)C(O)[C@@H]1O.[Au+] (stereo partly drawn)	/	19*
65	O=C(CN1C(=O)CSc2ncccc21)N1CCN(c2ccccc2)CC1	-0.66	-0.11
66	Cc1ccc2c(c1)c1c(n2CC(O)CN2C(=O)CNC2=O)C(=O)CCC1 (stereo not drawn)	/	-0.64
67	Cc1cc(C)nc(NC=C2C(=O)OC(C)(C)OC2=O)n1	/	-1.4
68	COc1ccc(-n2ccnc(NCc3cccs3)c2=O)cc1Cl	1.1	/
69	O=S(=O)(NC1CC1)c1ccc(S(=O)(=O)N2CCN(c3ncccn3)CC2)cc1	1.1	-0.72
70	Cc1cc(-c2ccc(C(C)C)c(S(=O)(=O)N(C)Cc3ccco3)c2)on1	0.61	/
71	Fc1ccc(CSc2nc3ccc(Cl)cc3[nH]2)cc1	-0.23	-1.7
72	O=c1c2nccnc2nc(SCc2ccccc2F)n1CC1CCCO1 (stereo not drawn)	1	-1.4
73	CCC(=O)N1c2ccccc2CC1C(=O)NCCCOC(C)C (stereo not drawn)	0.44	/
74	O=C(CCCCCn1c(=S)[nH]c2ccsc2c1=O)N1CCCC1	/	-2.3
75	O=C(NC1CC1)C1CCN(c2ncccc2-n2cccc2)CC1	2	/

# Compound profiles (already shown). Order of values: TAR Tat displ, CDC25B CDK2 inh
# `O=C(CN1C(=O)CSc2ncccc21)N1CCN(c2ccccc2)CC1` is entered as -0.66, -0.11
# `Cc1cc(C)nc(NC=C2C(=O)OC(C)(C)OC2=O)n1` is entered as /, -1.4

# (more compounds)
no.	smiles	TAR Tat displ	CDC25B CDK2 inh
76	CC(C)OCCCNC(=O)c1cc2c(s1)CS(=O)(=O)C2	2.4	-1.4
77	CCN(c1cccc(C)c1)c1c(-c2ccc3c(c2)OCC(=O)N3)c(=O)c1=O	0.78	/
78	COc1ccc(-n2ncc3c(NCCCN4CCOCC4)ncnc32)cc1	/	-2.5
79	CN1CCN(c2nc3ccccc3c3nc(-c4ccccc4)nn23)CC1	0.81	0.2
80	c1ccc2c(CSc3nnc(C4CCNCC4)o3)cccc2c1	1	-1.8
81	COc1cc(OC)cc(-c2nnc(SCC(=O)N3CCCC3)o2)c1	1.2	-1.1
82	CCc1nnc(NC(=O)CSCc2cc(=O)n3ccsc3n2)s1	-0.17	/
83	O=C1CC(c2cccs2)c2c(n[nH]c2-c2ccc(Cl)cc2)N1 (stereo not drawn)	-0.98	-0.5
84	CCCS(=O)(=O)N1CCN(c2cc(N3CCCC3)nc(C)n2)CC1	0.36	-1.9
85	Cc1ccc(C2CC(=O)Nc3c(-c4ccccc4)csc32)cc1 (stereo not drawn)	2.1	/
86	CCN1CCN(CCCNC(=O)CCCn2nc(C)c3sc4ccccc4c3c2=O)CC1	2.6	-3.3
87	O=C1c2oc3ccccc3c(=O)c2C(c2ccccc2F)N1c1ccccn1 (stereo not drawn)	0.91	-1
88	CC1=C(C(=O)OCC(C)C)C(c2ccccc2)N2C(=O)CCSC2=N1 (stereo not drawn)	/	-1.4
89	N#Cc1c(C(F)(F)F)cc(-c2ccc(Cl)cc2)nc1SCC(=O)O	-1.1	-2
90	O=S(=O)(c1ccc2[nH]c3c(c2c1)CCCCCC3)N1CCCC1	0.5	/
91	O=S(=O)(Nc1ccccn1)c1ccc(-n2cccn2)cc1	0.44	/
92	COc1ccc(C2C3=C(CCCC3=O)Nc3ncnn32)cc1 (stereo not drawn)	/	-2.2
93	CCSc1nc2c(c(=O)[nH]1)C(c1cccs1)C(C(=O)OC)=C(C)N2 (stereo not drawn)	/	-0.34
94	COc1ccc(C2C(C(=O)c3ccco3)=C(O)C(=O)N2CC2CCCO2)cc1OC (stereo not drawn)	/	-0.67
95	COc1ccccc1/C=C/c1nn2c(-c3ccc(F)cc3)nnc2s1	1.4	-1.8
96	CC(=O)N(CCCN(C)C)c1nc2c(F)cccc2s1	2.1	/
